# High-throughput results from PubChem BioAssay.
# KCNQ2 enhance: potentiators of rat KCNQ2 potassium channel; Potassium voltage-gated channel subfamily KQT member 2 (Rattus norvegicus), O88943; CHO-K1 KCNQ2, FluxOR thallium flux fluorescence; stronger effect = higher value; B-score at 10 µM; 0.54% of 310,000 active; AID 2239, 2010;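 active = fluorescence ratio B-score at least 3 SD of library B-scores, with initial fluorescence B-score within 3 SD, cut at about 5.3 in these data; same plate scores as AID 2156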;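 note: B-score of peak minus minimum over baseline fluorescence ratio after K+ and Tl+ stimulus; positive B-score means potentiation of KCNQ2 with more thallium influx and brighter signal; only the inactives scoring about 0 or higher are listed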
# Target sequence (O88943 whole entry, looked up): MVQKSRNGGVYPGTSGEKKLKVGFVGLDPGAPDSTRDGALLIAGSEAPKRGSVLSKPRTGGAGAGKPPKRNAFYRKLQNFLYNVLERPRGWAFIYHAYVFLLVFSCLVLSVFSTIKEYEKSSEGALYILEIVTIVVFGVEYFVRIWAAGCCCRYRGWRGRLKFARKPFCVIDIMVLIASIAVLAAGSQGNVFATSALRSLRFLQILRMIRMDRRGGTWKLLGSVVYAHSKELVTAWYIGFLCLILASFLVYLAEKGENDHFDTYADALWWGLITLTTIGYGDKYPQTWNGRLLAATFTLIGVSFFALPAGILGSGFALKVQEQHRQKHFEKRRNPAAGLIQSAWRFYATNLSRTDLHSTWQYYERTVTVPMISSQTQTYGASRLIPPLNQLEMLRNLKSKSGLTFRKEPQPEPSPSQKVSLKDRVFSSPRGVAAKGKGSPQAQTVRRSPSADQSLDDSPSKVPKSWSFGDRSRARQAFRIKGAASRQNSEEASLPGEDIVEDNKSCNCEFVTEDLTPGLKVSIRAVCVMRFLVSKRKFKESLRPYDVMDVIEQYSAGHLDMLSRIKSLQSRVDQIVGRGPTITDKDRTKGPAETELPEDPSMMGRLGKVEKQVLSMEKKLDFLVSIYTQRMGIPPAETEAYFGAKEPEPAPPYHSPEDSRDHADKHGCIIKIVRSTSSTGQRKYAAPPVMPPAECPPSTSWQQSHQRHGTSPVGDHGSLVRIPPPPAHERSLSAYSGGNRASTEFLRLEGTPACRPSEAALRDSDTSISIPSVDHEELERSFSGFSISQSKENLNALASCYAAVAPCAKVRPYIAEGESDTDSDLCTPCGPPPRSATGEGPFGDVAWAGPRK
# KCNQ2 enhance baseline: recorded beside KCNQ2 enhance, whose call it bears; B-score; compound at 10 µM; measured here: initial fluorescence intensity artifact check;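 brightness before thallium and not channel activity; 0 = typical well and far values either way flag optical interference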
# Active calls of the source: *; . = no result given.
SMILES,KCNQ2 enhance,KCNQ2 enhance baseline
Cc1cc([N+](=O)[O-])nn1CC(=O)Nc1c(C)n(C)n(-c2ccccc2)c1=O,0.83,0.55
O=C(CC1SC(=Nc2ccccc2)N(CCc2ccccn2)C1=O)Nc1ccc(F)cc1 (centres undefined),0.03,-0.42
COC(=O)Cc1c(C)nc2nc(-c3ccc(Cl)cc3)[nH]n2c1=O,1.52,-0.25
O=C(COC(=O)c1cccnc1Nc1ccccc1F)NC1CC1,0.26,-0.59
O=C(CSc1ccccc1)NCc1ccccn1,1.36,-1.33
NC(=O)c1ccccc1NC(=O)NC1CCCCC1,0.01,0.37
CC(=O)Nc1ccc(S(=O)(=O)c2ccc(N)cc2)cc1N,0.06,2.15
O=C(COC(=O)/C=C/c1cccs1)NC(=O)Cc1ccccc1,0.75,0.19
O=C(COc1ccccc1)N1CCN=C1c1ccccc1,0.34,-1.38
CCOC(=O)c1c(NC(=O)/C=C/C(=O)O)sc(C)c1-c1ccc(Cl)cc1,3.35,-1.79
CC1CCN(c2ccc3nnc(CCC(=O)Nc4cccc(F)c4)n3n2)CC1,0.95,-1.81
Cc1cc(C)n(C(=O)c2ccc([N+](=O)[O-])cc2N)n1,0.64,-1.01
CC(=O)N1CCc2cc(S(=O)(=O)CCC(=O)NCCc3ccccc3)ccc21,1.82,-1.02
c1ccc(CNc2nc3ccccc3[nH]2)cc1,0.83,0.65
COc1ccccc1CN1C(=O)[C@@H]2Cc3c([nH]c4ccccc34)C(C)(C)N2C1=O,1.12,-2.43
CCC(C)(C)NC(=O)CN(C(=O)c1snc(C(N)=O)c1N)c1ccc2nc(C)sc2c1,0.8,0.67
COc1cc2[nH]c3c(c2cc1OC)CCN1CCCC[C@@H]31,0.62,0.11
CCNC(=S)N/N=C/c1sc(N2CCCCC2)nc1-c1cccs1,0.14,-0.01
Cc1ccc(/C=N/NC(=O)CNC(=O)COc2ccccc2)cc1,0.75,-0.44
COc1ccccc1-n1cc(-c2ccccc2)c2c(=S)nc[nH]c21,1.4,-0.76
CCOC(=O)CSc1nc2cc(C(=O)OC)ccc2c(=O)n1CCN1CCOCC1,0.21,-0.1
CSc1nc2[nH]ncc2c(=O)[nH]1,1.45,-0.53
CCCCNc1nc(Cl)nc(Nc2ccc(C)cc2)n1,0.39,0.73
O=C(/C=C/c1cccs1)NC(=S)NNC(=O)c1ccccc1O,0.03,-0.02
Cn1c(/C=N/O)nc2ccccc21,0.94,1.96

# Following part:
SMILES,KCNQ2 enhance,KCNQ2 enhance baseline
O=S(=O)(c1cccc(S(=O)(=O)N2CCC(N3CCCCC3)CC2)c1)N1CCOCC1,0.13,0.63
O=C(O)C1CCCCN1S(=O)(=O)c1cccc2nsnc12 (centres undefined),1.6,-0.2
NS(=O)(=O)c1ccc(CCNC(=O)c2cc(-c3cc(Cl)ccc3O)n[nH]2)cc1,0.13,-0.06
CCOC(=O)c1ccccc1NC(=O)COC(=O)CCNS(=O)(=O)c1ccccc1,0.09,0.73
CCN(/N=C/c1ccc(N(C)C)cc1)c1nc2ccccc2[nH]1,1.34,-0.07
N#C/C(=C\C=C\c1ccccc1)C(=O)N1CCCC1,1.09,0.19
CN(Cc1cccc(Cl)c1)C(=O)C1CSC2(C)CCC(=O)N12 (centres undefined),0.52,-0.16
O=C(Nc1ccccc1NC(=O)c1ccco1)c1ccco1,0.28,-0.68
CCOC(=O)c1c(S(=O)(=O)NCc2ccc(OC)cc2)c(C)n(C)c1C,0.38,-0.79
COCc1cc(=O)n2[nH]c(-c3ccccc3)cc2n1,0.62,1.13
COc1ccc(N2CCN(C(=O)CN3C(=O)NC(c4ccc(OC)cc4)(c4ccc(OC)cc4)C3=O)CC2)cc1,0.19,1.25
CCCOC(=O)c1sc2nc3c(cc2c1N)C(=O)CCC3,0.11,-0.37
O=c1[nH]nc(-c2ccccc2)cc1-c1ccccc1,2.58,-0.43
Cc1ccccc1N/C(=N/S(=O)(=O)c1cc(F)ccc1F)c1ccccc1,1.04,0.1
CC(=C/c1ccccc1)/C=N/NC(=O)CSc1nc(C)cc(C)n1,0.48,-1.89
C[C@H]1CC[C@]2(O[C@H](CCO)C[C@@H](O)[C@@H]2O)O1,0.91,-0.08
CC(=O)c1ccc(NC(=O)Nc2ccc(NS(=O)(=O)c3ccc(C)cc3)cc2)cc1,1.01,0.74
Cc1nc2cc(NS(=O)(=O)c3ccccc3)ccc2n1C,0.03,0.01
CCCCCCCCNc1nc(Cl)nc(NCCN2CCOCC2)n1,1.11,0.67
COc1cc(CN2CCN(Cc3cccc(OC)c3OC)CC2)cc(OC)c1,0.64,0.88
Brc1ccc(-c2nnc3ccc(N4CCN(c5ccccc5)CC4)nn23)cc1,1.36,0.09
CC(C)(CN1CCCC1)NS(=O)(=O)c1ccccc1,0.44,-1.73
CCCN(CCC)CCCNC(=O)c1cc2c(=O)[nH]c3ccccc3c2s1,0.58,-0.34
CCOc1ccc(Cl)cc1S(=O)(=O)NCc1cccnc1,1.99,-0.2
Fc1ccccc1CN1CCCN(C(=S)Nc2cccc(Cl)c2)C1,0.7,-0.12

# Of the compounds above, eight contain a Cl atom:
SMILES,KCNQ2 enhance,KCNQ2 enhance baseline
COC(=O)Cc1c(C)nc2nc(-c3ccc(Cl)cc3)[nH]n2c1=O,1.52,-0.25
CCOC(=O)c1c(NC(=O)/C=C/C(=O)O)sc(C)c1-c1ccc(Cl)cc1,3.35,-1.79
CCCCNc1nc(Cl)nc(Nc2ccc(C)cc2)n1,0.39,0.73
NS(=O)(=O)c1ccc(CCNC(=O)c2cc(-c3cc(Cl)ccc3O)n[nH]2)cc1,0.13,-0.06
CN(Cc1cccc(Cl)c1)C(=O)C1CSC2(C)CCC(=O)N12 (centres undefined),0.52,-0.16
CCCCCCCCNc1nc(Cl)nc(NCCN2CCOCC2)n1,1.11,0.67
CCOc1ccc(Cl)cc1S(=O)(=O)NCc1cccnc1,1.99,-0.2
Fc1ccccc1CN1CCCN(C(=S)Nc2cccc(Cl)c2)C1,0.7,-0.12

# As a working copy, 2 of the compounds above:
SMILES,KCNQ2 enhance,KCNQ2 enhance baseline
Cc1nc2cc(NS(=O)(=O)c3ccccc3)ccc2n1C,0.03,0.01
CCCCCCCCNc1nc(Cl)nc(NCCN2CCOCC2)n1,1.11,0.67

# Next part:
SMILES,KCNQ2 enhance,KCNQ2 enhance baseline
O=C(CSc1nc2ccccc2c(=O)n1CCC(=O)N1CCN(c2ccccc2)CC1)NCC1CCCO1 (centres undefined),0.54,0.43
COCCN=c1scc(-c2cc(OC)ccc2OC)n1/N=C/c1c[nH]c2ccccc12,0.02,0.43
Cc1ccn2c(c1)nc(=O)c1cc(S(=O)(=O)N3CCC(C)CC3)ccc12,0.74,-0.04
Cn1nc(C(=O)NNc2c(F)c(F)cc(F)c2F)c2ccccc2c1=O,0.72,-0.31
Cc1cc(C)c[n+](-c2nc3ccccc3nc2C(=C=[N-])C#N)c1,1.93,.
CCN(CC)CCC(O)(c1ccccc1)C1CCCCC1 (centres undefined),0.03,-0.19
CCc1ccc(N(CC)C(=O)c2cn(C)c(=O)c3ccccc23)cc1,0.61,1.55
COc1ccccc1NC(=O)CN(c1ccccc1C)S(C)(=O)=O,0.03,-1.54
COc1ccc(OCCOC(=O)Nc2ccccc2)cc1,1.44,0.42
COCCCn1c(C(=O)NCCN2CCOCC2)cc2c(=O)n3cccc(C)c3nc21,0.81,4.22
Cc1ccc(-n2c(Cc3cccn3C)nnc2SCC(=O)NCc2ccco2)cc1,1.06,-0.01
Cc1cc(C)n(CC(=O)N/N=C/c2ccc(C)o2)n1,0.71,1.02
CCOC(=O)c1ccc(N=CC2=C(O)CC(C)(C)CC2=O)cc1,0.13,-0.24
Cc1ccc(CCNC(=O)CC2Oc3ccc(C)cc3NC2=O)cc1 (centres undefined),0.53,0.21
COC(=O)C1(C(=O)OC)Sc2ccccc2C1=O,0.18,-0.82
COc1ccc(-n2c(=S)[nH]c3cc(C(=O)NCCCN4CCCC4=O)ccc3c2=O)cc1,0.66,-1.26
COc1ccc(C(=O)N2CCN(c3ccc(C)cc3)CC2)cc1OC,0.5,-0.39
Cc1cccc(NC(=O)c2sc3nc(N)c(C#N)cc3c2N)c1,1.08,0.1
O=C(Nc1ccc(-c2nc3ccccc3s2)cc1)c1cc(-n2cnnc2)ccc1Cl,1,-1.17
c1ccc2sc(-c3ccncc3)nc2c1,0.28,2.66
CCCCCCCNC(=O)c1ccc(N2CCC3(CC2)OCCO3)c([N+](=O)[O-])c1,3.27,1.16
CCC(=O)c1c[nH]c(C(=O)N2CCN(c3ccccc3)CC2)c1,1.67,-0.93
Cc1cccc(CN2CCN(Cc3ccc(-n4cccn4)cc3)CC2CCO)n1 (centres undefined),1.01,1.18
O=c1cc(N2CCOCC2)[nH]c(=O)n1Cc1ccc(F)cc1,1.3,-0.91
CCOC(=O)Nc1ccc(OC)c([N+](=O)[O-])c1,0.36,1.01

# Next part
SMILES,KCNQ2 enhance,KCNQ2 enhance baseline
CCCOc1cccc(-c2nnc(N)s2)c1,0.95,0.54
CCOC(=O)c1c(NC(=O)CSc2nnc(N)s2)sc(C)c1-c1ccc(C)cc1,1.86,-0.36
COc1ccc(/C=C2\NC(=S)N(CC3CCCO3)C2=O)c(OC)c1 (centres undefined),0.93,1.8
Cc1ccc(NC(=O)CCn2cnc3ccccc3c2=O)c(C)c1,0.98,4.58
CC(OC(=O)c1cccc(-n2cnnn2)c1)C(=O)Nc1cccc(Cl)c1 (centres undefined),1.24,0.25
CCC(C)NC(=O)CO/N=C/c1ccc(C(=O)OC)cc1 (centres undefined),0.51,0.1
c1ccc2c(N3CCCC3)nc(-c3ccncc3)nc2c1,0.14,-0.09
CC1CCC(NC(=O)Cn2ncc3ccccc32)CC1 (centres undefined),0.23,0.62
COCCn1c(C)cc(C(=O)CSc2nc3nc(C)cc(C)n3n2)c1C,0.82,-1.36
O=C(/C=C/c1ccc2ccccc2n1)c1cc(Cl)ccc1O,0.11,0.63
OCCNC(=S)Nc1ccc(Cl)c(Cl)c1,0.48,-0.58
Cc1ccc(N(Cc2cc3ccccc3[nH]c2=O)S(=O)(=O)c2ccccc2)cc1,0.01,-1.68
CCOC(=O)N1CCN(C(=O)c2ccc(N(Cc3ccc(C)cc3)S(C)(=O)=O)cc2)CC1,0.76,-1.52
O=C(Cc1ccccc1)Nc1ccc(C(=O)O)cc1,1.97,0.45
CC(C)(Oc1ccc(Cl)cc1)C(=O)OCC(=O)NCCc1ccccc1,1.77,-0.09
Cc1cc(O)ccc1N/C=C/c1onc(C)c1[N+](=O)[O-],1.27,-1.37
Nc1nnnn1/N=C/c1cccc(Oc2ccccc2)c1,0.58,0.62
Cc1cccc(NC(=O)C(=O)NCC2CCCN2S(=O)(=O)c2ccccc2)c1 (centres undefined),0.32,-0.08
CCOC(=O)c1cnc(SC)nc1Oc1cccc(NS(=O)(=O)c2ccc(F)cc2)c1,1.03,-1.76
O=c1nc2n(c3ccc(Br)cc13)CCS2,0.47,-1.39
COc1ccc(NC(=O)[C@@]2(CC(=O)O)CC(/C=C/c3ccccc3)=NO2)cc1,1.33,1.16
COc1ccc(Cl)cc1NC(=O)Cn1nnc(C(=O)NCc2ccc3c(c2)OCO3)c1N,0.02,3
COc1ccc(-c2cccc(NS(=O)(=O)c3ccc([N+](=O)[O-])cc3)c2)nn1,0.01,0.54
COc1ccccc1NC(=O)CCCCCN1C(=O)c2cccc3cccc(c23)C1=O,0.84,-3.93
COCCCNC(=S)N(CCO)Cc1cc2cc3c(cc2[nH]c1=O)OCO3,0.2,-1.69

# Next part:
SMILES,KCNQ2 enhance,KCNQ2 enhance baseline
C=CCn1c(C)cc(C(=O)CSc2nnc(Cc3ccccc3)o2)c1C,0.4,0.13
COCCNC(=O)c1ccc(Cn2c(=S)[nH]c3cc4c(cc3c2=O)OCO4)cc1,0.42,-1.09
Cc1nnsc1C(=O)N1CCCC(Nc2ccc(C(C)C)cc2)C1 (centres undefined),0.14,-0.14
Cc1ccc(SCC(=O)NCCc2ccccc2)cc1,0.97,-1.02
Cc1nnc(SCC(=O)NNC(=O)COc2ccc(Cl)cc2)n1C,0.06,0.48
COc1ccc(-c2cccc(C3CC=CC4C3C(=O)N(Cc3ccccc3)C4c3ccc4ccccc4c3)c2)cc1 (centres undefined),1.47,1.57
O=C(CSc1nccn1-c1ccccc1)Nc1ccc2c(c1)OCO2,0.59,0.01
Cc1ccccc1C(=O)Nc1nc(SCc2ccc(Cl)cc2)n[nH]1,0.97,0.3
COc1ccc(/C=C/c2c([N+](=O)[O-])c(=O)n(C)c(=O)n2C)cc1O,0.81,0.83
O=C(NC1CC1)[C@@H]1CSC2c3ccccc3C(=O)N21 (some centres undefined),0.5,0.15
COc1ccc(Cc2cc(-c3ccc(F)cc3)n[nH]c2=O)cc1,1.18,-0.92
CC1=NN(c2ccccc2)C(=O)C1(C)C,0.5,2.39
Cc1ccc2c(C(=O)CNc3nncs3)c(C)[nH]c2c1,0.65,2.67
CC(=O)N1CCC(C(=O)NC2CCCc3c2cnn3-c2cc(F)cc(F)c2)CC1 (centres undefined),0.53,-0.6
CN(CCc1ccccn1)Cc1ccc(Cl)cc1,1.22,-1.15
Cc1cc(N2CC(C)OC(C)C2)n2cc(-c3ccccc3)nc2n1 (centres undefined),0.97,0.85
O=C(COC(=O)C1=COCCO1)NCc1ccc(Cl)cc1,0.55,0.57
Cc1cc2ccccc2n2c(SCC(=O)NCC3CCCO3)nnc12 (centres undefined),0.1,-0.08
COc1ccc(NC(=O)C2CCC(N3C(=O)C4CCCCC4C3=O)CC2)cc1 (centres undefined),0.43,0.49
Cn1c(=O)c2c(ncn2CCNC2=NCCCCC2)n(C)c1=O,0.04,-1.64
O=C(CN1CCN(Cc2ccccc2)CC1)Nc1ccc2c(c1)CCC2,1.85,0

# The list is partial. The share of hits here may be higher or lower than overall.
